From PubChem
NS1 inh: blocks influenza NS1 protein function | S. cerevisiae slowed by influenza A NS1, growth recovery by OD600 | Potency, µM (doses to about 46.1 µM), for the others: top-dose activity, positive = more growth | hit rate 0.4% among 270,000 | AID 2326; active means well fitted rising curve with a large enough effect; inconclusive means small, poorly fitted or top-dose-only effect; inactive means no such curve, though single readings can be large or run the other way; also: nearly all actives have a fitted effect of over 50% in size
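A cell-based growth assay was used: compounds that relieve NS1-induced slow growth of budding yeast raise OD600. Assay medium was yeast nitrogen base with ammonium sulphate and -URA supplement, pH 6.0, with 2% galactose.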
LASV entry inh: Lassa virus entry inhibition; Potency, µM (highest dose often 37.9 µM), for the others: top-dose activity change, negative = inhibition, most hits filed as inhibitors; hit rate 1.2% among 300,000; Lassa virus pseudotype entry inhibition, cell reporter; control for the full effect not named in the record; active means well fitted inhibition curve with a large enough effect; inconclusive means small, poorly fitted or top-dose-only effect, or effect the other way; inactive means flat fitted curve, though single readings scatter; tested in HEK293 cells; also: % is scaled to controls: 0 for no effect and ±100 for the full control effect; nearly all actives have a fitted effect of over 50% in size; luciferase read-out
Marburg entry inh: inhibitors of Marburg virus binding or cell entry; Marburg virus pseudotyped entry inhibition, cell reporter; control for the full effect not named in the record; about a third of the inactives were read at about 46 µM; Potency, µM (highest dose often 37.8 µM), for the others: at the top dose activity change, negative = inhibition, hits mostly inhibitors; hit rate 1.8% among 300,000; active = well fitted inhibition curve with a large enough effect; inconclusive = small, poorly fitted or top-dose-only effect, or effect the other way; inactive = flat fitted curve, though single readings scatter; tested in HEK293 cells; about a fifth of its hits are not listed in these tables; also: % is scaled to controls: 0 for no effect and ±100 for the full control effect; luciferase read-out
Cruzain Triton: cruzain (T. cruzi) inhibition with detergent; P25779; purified cruzain, Z-FR-AMC fluorescence, 0.01% Triton; Potency, µM, for the others: max response, negative = inhibition, actives largely listed as inhibitors; hit rate 0.43% among 200,000; AID 1478;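 also: plate controls were neutral wells for no effect and buffer without enzyme for full effect; nearly all actives have a fitted effect of over 40% in size; top concentration of the series not given in the record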
Target sequence (P25779 123-467 limits assumed): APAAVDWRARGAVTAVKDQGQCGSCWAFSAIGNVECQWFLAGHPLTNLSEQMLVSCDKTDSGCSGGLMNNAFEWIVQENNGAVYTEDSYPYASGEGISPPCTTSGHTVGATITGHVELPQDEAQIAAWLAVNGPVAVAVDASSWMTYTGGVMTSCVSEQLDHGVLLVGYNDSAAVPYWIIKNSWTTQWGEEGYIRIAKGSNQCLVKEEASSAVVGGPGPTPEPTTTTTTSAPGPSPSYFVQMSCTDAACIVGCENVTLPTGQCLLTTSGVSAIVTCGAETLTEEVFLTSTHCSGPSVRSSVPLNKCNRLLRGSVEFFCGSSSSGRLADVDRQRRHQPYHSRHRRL
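Enzyme 1.5 nM, Z-FR-AMC 2 uM, NaOAc 100 mM pH 5.5, DTT 5 mM, Triton X-100 0.01%; 15 min RT compound preincubation; kinetic ex360/em450, 60 s delta.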
SARS PLpro yeast: inhibitors of SARS-CoV papain-like protease in yeast. S. cerevisiae expressing SARS-CoV PLpro, growth rescue; control for the full effect not named in the record. Potency, µM (doses to about 32.9 µM), without a hit: top-dose activity, positive = growth rescue. hit rate 0.19% among 330,000; active means well fitted rising curve with a large enough effect; inconclusive means small, poorly fitted or top-dose-only effect; inactive means no such curve, though single readings can be large or run the other way; also: 0% is about no effect; nearly all actives have a fitted effect of over 55% in size; growth read by luminescence after 48 h
2A StopGo: FMDV 2A StopGo reporter, luciferase signal. hit rate 1.2% among 410,000. AID 1159524. human cells with a luciferase reporter of 2A StopGo recoding; control for the full effect not named in the record. Potency, µM (doses to about 57.9 µM), inactives show at the top dose signal change, negative = less light; active = well fitted falling curve with a large enough effect; inconclusive = small, poorly fitted or top-dose-only effect; inactive = no such curve, though single readings can be large or run the other way; tested in HEK293T cells; also: % is scaled to controls: 0 for no effect and ±100 for the full control effect; nearly all actives have a fitted effect of over 45% in size; luciferase light after 4 h
RE007 growth inh: less growth of the S. pombe RE007 Vpr strain. S. pombe RE007 Vpr strain, BacTiter-Glo ATP luminescence, 24 h; control for the full effect not named in the record. Potency, µM (top dose mostly 92.2 µM), inactives show at the highest dose activity change, negative = less growth. hit rate 0.21% among 360,000; active = well fitted falling curve with a large enough effect; inconclusive = small, poorly fitted or top-dose-only effect; inactive = no such curve, though single readings can be large or run the other way;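 also: % is scaled to controls: 0 for no effect and ±100 for the full control effect; nearly all actives have a fitted effect of over 50% in size; the assay follows cell death caused by Vpr and the record does not say whether a fall means rescue or toxicity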
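Fission yeast RE007 carrying one integrated HIV-1 vpr copy, seeded at OD 0.01 in PMG+AL medium with 23 nL pinned compound. Grown 24 h at 30 degrees; viability read by BacTiter-Glo luminescence after 5 min.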
Cruzain inh noDet: inhibitors of Trypanosoma cruzi cruzain without detergent; P25779; purified cruzain, Z-FR-AMC fluorescence, no detergent; Potency, µM, for the others: max response, negative = inhibition, usual class: inhibitors; hit rate 2.3% among 200,000;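 also: plate controls were enzyme without inhibitor for no effect and buffer without enzyme for full effect; nearly all actives have a fitted effect of over 40% in size; top concentration of the series not given in the record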
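Purified cruzain at 1.5 nM, pre-incubated 15 min with compound at room temperature in 100 mM sodium acetate pH 5.5, 5 mM DTT, 0.00005% Triton X-100. Reaction started with 2 uM Z-FR-AMC; AMC fluorescence increase over 60 s gives rate.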
* hit, by the source's call; ? = inconclusive; nt = no result given; & = joins results of further samples; [ ] = another dose, or the depositor's remark. Unless noted, calls follow the shape of the dose curve; as a rule, active = well fitted curve in the direction sought with a large enough effect; inconclusive = small, poorly fitted or top-dose-only effect, or another doubt; inactive = no such curve, though single readings can be large; an effect the other way counts as inactive or inconclusive. Potency is read from the fitted curve at half-maximal effect.

SMILES	NS1 inh	LASV entry inh	Marburg entry inh	Cruzain Triton	SARS PLpro yeast	2A StopGo	RE007 growth inh	Cruzain inh noDet
O=C(CSCc1cnn(-c2ccccc2)c1-n1cccc1)NCc1ccc2c(c1)OCO2	-34%	-26%	-5%&-5%	-4.0%	-4%	-6%	-15%	20%
Cc1noc(C)c1COc1ccc(C(=O)N2CCN(S(=O)(=O)c3ccc(Cl)cc3)CC2)cc1	nt	10%	10%	nt	2%	-14%	-7%	nt
Cc1ccc(OCC(=O)Nc2c(C(=O)c3ccccc3)oc3ccccc23)cc1C	nt	-2%[46.1 µM]	3%[46.1 µM]	-1.2%	nt	-11%	nt	22%
Cc1nc(NCC2CCCO2)[nH]c(=O)c1CCC(C)C (configuration not stated)	-8%	1%	22%	3.5%	-1%	-4%	0%	6%
Cc1oc(-c2ccccc2F)nc1CN1CCC(C(=O)NCCC2=CCCCC2)CC1	9%	-2%	?	4.2%	6%	?	14%	-2%
COc1ccc(C(=O)N/N=C/c2sc(=O)n(Cc3cccc(C(=O)O)c3)c2Cl)cc1	11%	nt	nt	nt	2%	-15%	20%	nt
Cc1nn2c(C)c(C(=O)NCc3ccc(OC(C)C)cc3)cnc2c1-c1ccc(F)cc1	nt	-6%[46.1 µM]	nt	-2.0%	nt	4%	nt	-16%
Cc1cc(NC(=O)Nc2ccc(F)cc2F)n(C)n1	nt	-15%	-2%[46.1 µM]	nt	0%	28%	-3%	nt
Cc1ccc(N2CCN(C(=O)C3CCC(=O)N(Cc4ccc(Cl)cc4)C3)CC2)c(C)c1 (configuration not stated)	-27%	?	-16%	nt	-2%	?	9%	nt
Cc1ccc(S(=O)(=O)NCC(c2ccc3c(c2)OCO3)N2CCOCC2)cc1 (configuration not stated)	nt	-3%	-4%	nt	-6%	28%	12%	nt
COc1ccc(OC)c(CC(NC(C)=O)C(=O)NC2CCN(c3nc(C)cc(C)c3C#N)CC2)c1 (configuration not stated)	0%	nt	nt	-0.8%	0%	nt	nt	0%
OC(CN1CCN(c2cccc(Cl)c2)CC1)c1ccccc1 (configuration not stated)	0%	nt	nt	nt	0%	-25%	-9%	nt
CN1C(=O)NC(c2ccccc2)C2=C1CN(c1cccc(C(F)(F)F)c1)C2=O (configuration not stated)	9%	-26%	-6%	-1.4%	3%	-19%	8%	8%
O=C(CCCN1C(=O)/C(=C/c2cccs2)SC1=S)Nc1cccc(C(=O)O)c1	nt	?	2%[46.1 µM]	nt	0%	37%[activator]	3%	nt
CCOc1cccc2c1OC1(C)CC2NC(=O)N1c1ccc(OC)cc1 (configuration not stated)	-11%	20%	?	8.1%	-6%	-28%	11%	2%
CCOC(=O)c1ccc(N2C(=O)CC(NC3CCN(C(=O)c4ccc(F)cc4)CC3)C2=O)cc1 (configuration not stated)	-18%	6%	1%	2.1%	-29%	1%	0%	?
CCCCCc1ccc(C2=NNC(=O)CC2)cc1	-133%	nt	nt	nt	-15%	35%[activator]	24%	nt
C=CCNC(=O)c1cccc(NS(=O)(=O)c2ccc(Cl)cc2)c1	nt	?	13%[46.1 µM]	nt	0%	14%	4%	nt
CC(C)(C)C(=O)OC/C(N)=N/OC(=O)c1ccccc1	-5%	-10%[46.1 µM]	?	nt	-2%	30%	-14%	nt
CC(=O)c1sc(NC(=O)C2COc3ccccc3O2)nc1C (configuration not stated)	-95%	nt	nt	-6.2%	-3%	-54%	-22%	3%
NS(=O)(=O)c1ccc(NC(=O)CSc2nnc(COc3ccccc3Cl)n2C2CC2)cc1	1%	?	-18%	-0.4%	1%	-23%	11%	20%
CCC(=O)N(Cc1ccccc1)c1ccccn1	9%	-1%	10%	4.5%	1%	9%	25%	-3%
O=C(NCCNC(=O)c1ccc(Cl)cc1Cl)c1ccco1	-3%	7%[46.1 µM]	9%[46.1 µM]	nt	-1%	-1%	-2%	nt
CSc1nc(N(C)NC(=O)c2ccccc2)c2ccccc2n1	-3%	?	?	1.7%	-3%	-13%	13%	-2%
CN(C)/C=C/C(=O)/C=C/c1ccc(Cl)cc1Cl	nt	4%	?	nt	0%	51%[activator]	-7%	nt
Cc1ccc(C(=O)NCc2ccccc2F)cc1S(=O)(=O)N1CCCC1	-52%	?	?	nt	0%	29%	4%	nt
COc1ccc(-n2c(O)c(C=Nc3c(C)n(C)n(-c4ccccc4)c3=O)c(=O)[nH]c2=O)cc1	1%	?	7%	-1.5%	-2%	17%	9%	?
CC(C)CNC(=O)c1noc2c1CCCC2	?	nt	7%	5.0%	0%	19%	?	-1%
On1c(-c2ccccc2)nc2ccc(Cl)cc21	-78%	?	0%	4.0%	-24%	0%	-9%	-1%
CN(C)S(=O)(=O)c1cccc(COC(=O)C2=COCCO2)c1	0%	5%	?	-0.3%	-3%	12%	-12%	-7%
CC(C)CNC(=O)CSc1nc(-c2cccs2)cc(C(F)(F)F)n1	15%	?	-26%[46.1 µM]	-4.0%	0%	?	18%	-13%
N#CCC(=O)Nc1ccc(C(=O)OCC(=O)NNC(=O)c2ccc(Cl)cc2)cc1	nt	2%	-13%[46.1 µM]	nt	-2%	-11%	2%	nt
COc1ccc(S(=O)(=O)N2CCCC(C(=O)NCCc3ccccc3)C2)cc1 (configuration not stated)	-11%	-28%	-22%[46.1 µM]	nt	-2%	7%	6%	nt
COc1ccc(C2=NOC(C(=O)NCc3ccco3)C2)cc1OC (configuration not stated)	-25%	-21%	?	1.8%	-2%	-15%	-15%	1%
Cc1cc(C)cc(NC(=O)CCn2ccnc2C)c1	6%	10%	?	-3.4%	2%	-12%	4%	-4%
CCCN(S(=O)(=O)c1ccccc1F)S(=O)(=O)c1ccccc1Br	-52%	11%[46.1 µM]	?	nt	-10%	-1%	?	nt
Cc1c(Cl)cccc1NC(=O)CSc1nnc(C)n1-c1ccccc1	-5%	-14%	6%	6.8%	6%	-23%	-10%	1%
O=C(O)c1cc(S(=O)(=O)NCC2CCCO2)ccc1Cl (configuration not stated)	-4%	20%	?	5.2%	6%	31%[activator]	1%	-3%
CCN(CC)CCNCc1cc(Cl)c(OCC(=O)Nc2ccccc2)c(OC)c1	5%	nt	nt	nt	0%	-1%	3%	nt
CN1CCN(C2=NC(=O)/C(=C/c3cn[nH]c3-c3ccccc3)S2)CC1	5%	nt	nt	nt	1%	-14%	28%	nt
CC(=O)N1c2c(cc(Br)cc2S(=O)(=O)N2CCN(c3ccccn3)CC2)CC1C (configuration not stated)	-30%	?	?	0.7%	13%	-20%	3%	?
O=C(CC12CC3CC(CC(Br)(C3)C1)C2)NC1CCCC1	-10%	16%	3%[46.1 µM]	nt	2%	-1%	-5%	nt
CCS(=O)(=O)N1CCN(C(=O)c2cc(OC)cc(OC)c2)CC1	1%	2%	6%	4.3%	2%	nt	-6%	4%
COc1cccc(NC(=O)CNC(=O)c2ccc([N+](=O)[O-])cc2)c1	0%	12%	0%[46.1 µM]	nt	2%	-12%	-2%	nt
CCc1nnc(NC(=O)Cc2ccc(OCc3c(C)noc3C)cc2)s1	3%	2%	?	-1.9%	-1%	-19%	-3%	-3%
COc1ccc(-c2nnc(SCC(=O)Nc3cc(OC)ccc3OC)nc2-c2ccc(OC)cc2)cc1	nt	-6%[46.1 µM]	nt	-9.0%	nt	-12%	nt	?
COCCCNc1nc2c([nH]1)c(=O)[nH]c(=O)n2C	5%	20%	7%	-2.9%	1%	-4%	5%	-10%
O=C(NCc1nc2ccccc2[nH]1)c1c(F)cccc1F	nt	?	-2%[46.1 µM]	?	nt	5%	nt	-6%
CCCN1C(=O)/C(=C\c2ccncc2)SC1=Nc1ccccc1	-28%	?	?	-9.9%	-5%	?	14%	4%
O=C(CCCN1C(=O)/C(=C/c2ccc(F)cc2)SC1=S)NC1CCS(=O)(=O)C1 (configuration not stated)	6%	nt	nt	nt	-1%	2%	2%	nt
CCCNC(=O)CNC(=S)N(Cc1ccccc1F)C1CCCCC1	nt	-24%	-28%[46.1 µM]	nt	2%	3%	6%	nt
COc1ccc(-n2c(SCC(=O)NCc3ccco3)nc3sc4c(c3c2=O)CCN(C)C4)cc1	22%	nt	nt	nt	19%	-10%	-1%	nt
O=C(CSc1nccn1Cc1ccco1)Nc1cccc(F)c1	-4%	2%[46.1 µM]	nt	-3.3%	-3%	20%&29%	9%	-8%
CCN(CC)C1CCN(c2nc3nonc3nc2NCCOC)C1 (configuration not stated)	3%	1%[46.1 µM]	-13%[46.1 µM]	nt	1%	-1%	-12%	nt
[Li+]	0%	3%	9%&9%&9%&14%&9%	-6.7%	nt	nt	nt	6%
CC(C)CCN(N=O)[C@@H](Cc1ccccc1)CN(N=O)[C@@H](Cc1ccccc1)CN(C)N=O	4%	nt	nt	nt	0%	2%	1%	nt
CCC(CCC(=O)Nc1nncs1)C(=O)O (configuration not stated)	3%	nt	10%	8.8%	-7%	nt	nt	-4%
COc1ccc(NC(=O)NNC(=O)COc2ccc3ccccc3c2)cc1OC	-2%	1%	5%	nt	?	-26%	10%	nt
COc1cccc(/C=N/NC(=O)c2cc3cc([N+](=O)[O-])ccc3s2)c1O	16%	?	1.8µM*	3.5µM*	?	-6%	0%	10µM*
CCNC(=S)N1CCc2cc(OC)c(OC)cc2C1COc1ccc(F)cc1 (configuration not stated)	nt	nt	?	nt	0%	7%	-4%	nt

(listing goes on)
SMILES	NS1 inh	LASV entry inh	Marburg entry inh	Cruzain Triton	SARS PLpro yeast	2A StopGo	RE007 growth inh	Cruzain inh noDet
O=C(CN1CCN(Cc2ccccc2)CC1)Nc1ccccc1-c1ccccc1	4%	?	?	nt	3%	0%	2%	nt
CC(=O)Nc1ccc(S(=O)(=O)NCCC(=O)OCC(=O)c2cc(C)ccc2C)cc1	nt	-6%[46.1 µM]	13%	nt	1%	4%	-6%	nt
O=C(Oc1ccc(Cl)cc1)c1ccc2nccnc2c1	-1%	1%	8%	2.1%	-1%	13%	-1%	19%
COc1cc(S(=O)(=O)NCCOC23CC4CC(CC(C4)C2)C3)c(OC)cc1Cl	8%	?	?	-4.3%	-7%	-24%	-6%	-2%
CSc1nc2cc(Cl)ccc2s1	-1%	0%	2%	-1.5%	0%	29%	-7%	-4%
COc1ccc(CNCCCSc2nnnn2C)c(OC)c1	nt	-1%[46.1 µM]	-3%[46.1 µM]	-1.1%	nt	7%	nt	-12%
O=C(Nc1ccc2c(c1)OCO2)c1ccc2nc[nH]c2c1	16%	6%	?	1.5%	-10%	40%[activator]	12%	-23%
